# Source: PubChem
# miR-21 FLuc = miR-21 reporter, rising signal | HeLa miR-21 FLuc reporter, luciferase, 48 h | AID 2288 | Potency, µM (highest dose often 38.3 µM), without a hit: at the top dose reporter change, positive = more light | 340,000 tested, under 10 active; active = well fitted rising curve with a large enough effect; inconclusive = small, poorly fitted or top-dose-only effect; inactive = no such curve, though single readings can be large or run the other way;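 also: % of control where 0% means no effect; miR-21 action dims this reporter so a rising signal means less miR-21 action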
#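 HeLa cells endogenously expressing miR-21, stably carrying CMV-driven firefly luciferase with a downstream miR-21 binding site, 2000 cells/well. Titrations up to approximately 40 uM, 48 hours; luciferase luminescence read.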
# Rango complex inh = prevents formation of the Rango-importin beta complex; hit rate 0.031% among 340,000; Potency, µM (highest dose often 92.2 µM), inactives show top-dose inhibition of complex formation; Q14974; Rango CFP/YFP FRET sensor + importin beta, 45 min; active = rising FRET ratio curve, often small or poorly fitted; inconclusive = mostly compound fluorescence or quenching in the first reads; inactive = flat curves in all reads;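 also: potency is read from the fitted curve at half-maximal effect; 0% = DMSO wells and 100% = buffer wells lacking importin beta; nearly all actives have a fitted effect of over 15% in size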
#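 FRET biosensor (snurportin 1 IBB flanked by EYFP and cerulean), 50 nM, with compound 5 min, then 0.125 microM importin beta in PBS, 1 mM DTT, 0.02% Tween-20, 0.1% BSA. CFP/YFP ratio read after 45 min at room temperature; pre-read flags interference.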
# GLA inh pH 4.5 = inhibitors of human alpha-galactosidase A at pH 4.5 | activity change, negative = inhibition, % at 105 µM | P06280 | 230,000 tested, under 10 active | purified enzyme, 4-MU-alpha-Gal fluorescence, pH 4.5 | AID 1467; inconclusive = small, poorly fitted or top-dose-only inhibition, or a rising curve; inactive = flat fitted curve, though single readings scatter; no compound was filed as active;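 also: 0% = full activity with enzyme and -100% = basal without enzyme; dose as in the result columns while the protocol names 77 µM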
# Target sequence (P06280 whole entry, looked up): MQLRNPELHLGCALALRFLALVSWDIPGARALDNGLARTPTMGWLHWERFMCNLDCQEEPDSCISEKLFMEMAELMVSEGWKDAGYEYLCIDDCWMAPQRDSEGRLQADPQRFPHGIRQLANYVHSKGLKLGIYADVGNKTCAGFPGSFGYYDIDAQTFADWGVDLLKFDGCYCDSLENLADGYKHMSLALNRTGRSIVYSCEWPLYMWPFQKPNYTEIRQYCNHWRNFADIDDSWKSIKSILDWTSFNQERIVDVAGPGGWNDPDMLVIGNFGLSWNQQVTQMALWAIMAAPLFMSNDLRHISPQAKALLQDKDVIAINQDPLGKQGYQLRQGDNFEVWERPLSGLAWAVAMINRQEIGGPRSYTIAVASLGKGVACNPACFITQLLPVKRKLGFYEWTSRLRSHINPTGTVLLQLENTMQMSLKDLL
# Rango dissoc inh = inhibitors of RanGTP-induced Rango-importin beta complex dissociation. O95149+P62826. Biochemical FRET Rango-importin beta, RanGTP-induced dissociation. Potency, µM (doses to about 46.1 µM), inactives show top-dose activity change, negative = inhibition. hit rate 0.071% among 340,000. AID 540253; active means falling FRET ratio curve, often poorly fitted, with flat reads before Ran was added; inconclusive means other falling curves, or compound fluorescence or quenching; inactive means flat or rising ratio curve;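 also: potency is read from the fitted curve at half-maximal effect; % of control where 0% means no effect; nearly all actives have a fitted effect of over 45% in size; -100% = wells without RanGTP and RCC1; the record marks most hits as doubtful in a second field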
#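 Quantitative HTS using a FRET biosensor: 0.1 uM Rango, 0.25 uM importin beta, 0.6 uM Ran, 2 mM GTP, 0.2 uM RCC1 final, PBS with DTT, Tween-20 and BSA. Post-read taken 45 min after Ran addition.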
# * = called active by the depositor; ? = inconclusive; nt = no result given; & = joins results of further samples. These rows are one share of the data. The share of hits here may be higher or lower than overall.
SMILES,miR-21 FLuc,Rango complex inh,GLA inh pH 4.5,Rango dissoc inh
COCCOC1CCN(C(=O)c2cc(COc3ccc(-n4cncn4)cc3)on2)CC1,-0.4%,1.7%,nt,12.0%
C=C1SC(Nc2c(C)cc(C)cc2C)=NC12CCCCC2,-4.8%,3.8%,-5.1,14.5%
O=C(CN1C(=O)NC2(CCCCCC2)C1=O)Nc1ccc(S(=O)(=O)N2CCOCC2)cc1,-6.4%,-2.7%,5.6,18.1%
COc1cc2c(cc1OC)CN(S(=O)(=O)/C=C/c1ccccc1)CC2,0.3%,0.9%,nt,9.0%
S=C(NCc1ccco1)N1CCN(c2ccccc2Cl)CC1,-15.1%,-2.1%,-4.8,-2.2%
Brc1ccc(-c2cn3cccnc3n2)cc1,-42.1%,-0.2%,21.1,-0.2%
O=C(NC12CC3CC(CC(C3)C1)C2)N1CCN(C2CCCCC2)CC1,-1.8%,-1.4%,-1.6,-7.6%
CN1C(=O)c2ccccc2C(C(=O)NCCCN2CCCC2=O)C1c1c[nH]c2ccccc12 (stereo not given),-2.9%,-3.4%,7.9,7.9%
COc1ccc(C(=O)COC(=O)CCN2C(=O)[C@@H]3[C@H](C2=O)[C@@H]2C[C@H]3C(Br)C2Br)cc1 (stereo not given in full),-4.3%,1.5%,11.9,2.4%
Cc1ccccc1NC(=O)CSC(N)=O,7.2%,-0.6%,1.7,6.5%
COCCN1C(=O)N[C@@H](c2ccco2)C(C(=O)OC)=C1C,nt,-1.6%,5.2,9.4%
COc1ccc(/C=C/c2nc3ccccc3c(=O)n2-c2cccc(C(=O)O)c2)cc1,-6.3%,3.1%,nt,9.2%
CCCNC(=O)C1(S(=O)(=O)c2ccccc2)CC=CC1,-1.0%,?,nt,-6.5%
C/C(=N\N=c1/sc2ccccc2n1C)c1ccc(N2CCOCC2)cc1,-31.0%,0.0%,-10.5,1.5%
c1ccc2c(c1)OC1OC2Oc2ccccc21,nt,0.4%,nt,1.3%
O=C(NC1CCCCC1)c1ccc(CS(=O)(=O)c2ccc(Cl)cc2)o1,5.1%,?,nt,21.4%
CCC(C)n1ncn(-c2ccc(N3CCN(c4ccc(OC)cc4)CC3)cc2)c1=O (stereo not given),6.3%,?,-0.8,-16.8%
CNc1cc(-n2nc(C)cc2-c2ccccc2)ncn1,-15.4%,5.8%,2.5,-0.7%
C=C1CCC[C@]2(C)C[C@H]3OC(=O)C(CN4CCCCC4CO)[C@H]3CC12 (stereo not given in full),?,-4.8%,nt,-0.8%
CCCN(CC(=O)Nc1ccccc1OC)C(=O)Cc1ccc2c(c1)CCC2,nt,0.0%,nt,11.5%
COc1cc(C(=O)NCc2ccc(C)cc2)ccc1OC(F)F,-11.8%,0.7%,-0.6,13.4%
Fc1ccc(CNC(=S)Nc2cccc(Cl)c2)cc1,8.0%,1.3%,-5.0,21.1%
CCCCC(=O)C1=C(N2CCCC2)CC(C)(C)CC1=O,nt,-0.8%,nt,14.5%
COc1ccc(OC)c(Cc2nnc(CCC(=O)NC3CCCC3)o2)c1,-9.9%,-0.6%,-15.7,4.5%
CCCN1CCN(C(=S)Nc2sc(CC)cc2C(=O)OC)CC1,0.8%,-0.7%,-9.3,-0.4%
Clc1ccc2nc(CSc3nncn3-c3ccccc3)cn2c1,-5.8%,?,-2.3,0.1%
Cc1nn(C)cc1CNC(=O)Nc1ccc(Cl)cc1,-46.8%,1.9%,1.6,15.6%
CC(C)(C)OC(=O)CC1(C#N)c2ccccc2C(Br)=CN1C(=O)c1ccccc1 (stereo not given),nt,0.5%,nt,7.2%
CCOc1ccccc1CN(Cc1ccco1)S(=O)(=O)c1ccc(-n2cnnn2)c(OC)c1,17.7%,-2.8%,-5.3,5.0%
COc1ccccc1NC(=O)c1nn(-c2ccc(OC(F)(F)F)cc2)ccc1=O,-10.9%,6.4%,1.0,4.7%
O=C(Nc1cc([N+](=O)[O-])ccc1N1CCCC1)c1ccccc1,5.5%,-0.3%,-9.7,-36.5%
Cn1cccc1/C=N/NC(=O)Cc1ccccc1,-3.9%,0.6%,3.2,1.1%
COc1ccccc1Cn1c(CCCO)nc2ccccc21,-2.7%,-1.9%,1.4,-8.4%
Cc1ccc2c(c1)N(C(=O)CCC(=O)NCc1cccc(Br)c1)CC(C)O2 (stereo not given),14.4%,-0.4%,nt,-12.5%
CCc1noc(C)c1C(=O)Nc1cc(S(=O)(=O)N(CC)CC)ccc1N1CCCC1,nt,3.0%,nt,-9.5%
COc1ccccc1CN(C(=O)c1cnccn1)C(C(=O)NC1CCCCC1)c1cc(OC)c(OC)c(OC)c1 (stereo not given),-1.0%,-0.2%,nt,-13.4%
CCOC(=O)c1c(C)[nH]c(C)c1C(=O)COC(=O)c1cccc(S(=O)(=O)NC)c1,-8.3%,-0.3%,-9.8,14.2%
O=C(CNC(=O)c1ccco1)OCc1ccc(C(=O)Oc2ccccc2)cc1,-10.1%,3.8%,2.5,3.0%
COCCn1cc(C(=O)N2CCC(C)CC2)c2c3ccccc3n(C)c2c1=O,-4.1%,2.8%,14.0,-2.7%
Cc1cccc(NC(=O)C(C)N2C(=O)C3C4CC(C(Br)C4Br)C3C2=O)c1 (stereo not given),-4.7%,-2.7%,7.2,8.2%

# Some of these compounds in order of their number in GLA inh pH 4.5, largest number first.
SMILES | GLA inh pH 4.5
Cn1cccc1/C=N/NC(=O)Cc1ccccc1 | 3.2
O=C(CNC(=O)c1ccco1)OCc1ccc(C(=O)Oc2ccccc2)cc1 | 2.5
COc1ccccc1NC(=O)c1nn(-c2ccc(OC(F)(F)F)cc2)ccc1=O | 1.0
Clc1ccc2nc(CSc3nncn3-c3ccccc3)cn2c1 | -2.3
CCCN1CCN(C(=S)Nc2sc(CC)cc2C(=O)OC)CC1 | -9.3

# The results go on.
SMILES,miR-21 FLuc,Rango complex inh,GLA inh pH 4.5,Rango dissoc inh
CSc1nc(NNC=O)cc(Oc2ccc(NC(C)=O)cc2)n1,0.3%,-2.2%,nt,1.7%
Cn1c(=O)c2c(ncn2CC(=O)OCC(=O)NCCc2ccccc2)n(C)c1=O,nt,1.1%,nt,-2.8%
COc1ccc(NC(=O)CCC(=O)Nc2nnc(C3CCCCC3)s2)c(OC)c1,-1.1%,2.7%,nt,2.9%
Nc1c2c(nc3ccccc13)N(C1CCCCC1)CC2,1.7%,0.2%,9.5,-0.1%
Cc1ccc(C(=O)Nc2ccccc2C(=O)N2CCCC2)cc1[N+](=O)[O-],-10.5%,-0.3%,1.2,-15.0%
O=C(CN1C(=O)NC2(CCCC2)C1=O)NCCc1ccc(Cl)cc1Cl,nt,-2.8%,nt,-8.7%
NC(=O)c1ncc(C(F)(F)F)cc1Oc1cccc(F)c1,0.5%,-0.1%,13.1,-10.9%
Cc1ccc(SCc2nc3ccccc3[nH]2)cc1,-35.6%,4.5%,-23.6,-5.3%
CC(=O)OC1CC(C)(C)N(OC(=O)c2ccccc2)C(C)(C)C1,-1.7%,-0.4%,-6.0,18.1%
Cc1nc(SCN2C(=O)c3ccccc3C2=O)n[nH]1,-2.2%,0.3%,4.9,0.5%
CCC(C)NC(=O)c1cc(Sc2nnc(C)s2)nc2ccccc12 (stereo not given),1.3%,nt,-8.2,nt
O=C1S/C(=C\c2ccc(O)c([N+](=O)[O-])c2)C(=O)N1c1ccccc1Cl,12.3%,?,-19.3,0.9%
CCc1ccc(NC(=O)CSc2ccc(-c3sc(C)nc3C)nn2)cc1,11.5%,-0.5%,nt,2.6%
Cc1cc(C2=NNC(=NC3CC3)SC2)c(C)n1Cc1ccco1,?,2.5%,0.5,-1.0%
C/C=C(\C)CN1CCC(n2nccc2NC(=O)CCOc2ccccc2)CC1,0.8%,-1.3%,nt,1.1%
O=C(Cc1ccccc1)NCC(=O)OCC(=O)c1ccc([N+](=O)[O-])cc1,-6.3%,-6.2%,2.6,-16.0%
Cc1ccc(S(=O)(=O)c2ccc(Cl)cc2)cc1S(=O)(=O)N(C)CC(=O)O,-6.8%,-2.5%,-9.1,-9.8%
C=C1N(c2ccccc2)C(=O)OC1(C)C,-2.1%,-0.8%,-0.4,0.8%
Cc1ccc(C(=O)N(Cc2nc(-c3ccc(C)cc3)no2)C(C)C)cc1,-0.9%,0.6%,-2.5,8.9%
COc1ccc(C(CC(=O)O)NS(=O)(=O)c2ccc(C)cc2)cc1 (stereo not given),0.5%,5.9%,9.7,-7.7%

# Complete entries as entered above. Order of values: miR-21 FLuc, Rango complex inh, GLA inh pH 4.5, Rango dissoc inh
# `CCc1ccc(NC(=O)CSc2ccc(-c3sc(C)nc3C)nn2)cc1` is entered as 11.5%, -0.5%, nt, 2.6%
# `Cn1c(=O)c2c(ncn2CC(=O)OCC(=O)NCCc2ccccc2)n(C)c1=O` is entered as nt, 1.1%, nt, -2.8%

# Other records:
SMILES,miR-21 FLuc,Rango complex inh,GLA inh pH 4.5,Rango dissoc inh
CN(C)/C=N/c1cc(=O)n(C)c(=O)n1Cc1ccccc1,-3.3%,-0.7%,0.3&4.5,-10.3%
COc1ccccc1CN(C)S(=O)(=O)c1cccs1,-19.7%,-0.9%,nt,-0.6%
COCCN(CCOC)C(=O)c1ccc(SCc2ccc(C)cc2)c([N+](=O)[O-])c1,-1.4%,-0.8%,-4.8,-9.7%
CCOCCCNC(=O)C1CCC(CNS(=O)(=O)c2ccc(F)cc2)CC1 (stereo not given),-5.4%,3.1%,1.0,0.1%
Cc1ccc([C@@H]2CC=C(C(=O)O)[C@H](c3ccc(Cl)cc3)N2S(=O)(=O)c2ccc(C)cc2)cc1,nt,-2.1%,nt,-15.1%
O=C(Nc1ccccn1)C1CCN(S(=O)(=O)c2ccc3c(c2)OCCCO3)CC1,nt,0.2%,nt,-2.4%
Cc1ccc(-c2nnc3sc(CCc4ccccc4)nn23)cc1,-36.8%,0.5%,-0.8,-3.3%
CN(C(=O)c1ccccc1C(=O)c1ccccc1)C1CCS(=O)(=O)C1 (stereo not given),1.9%,0.0%,-0.4,5.7%
Cc1cccc(NC(=O)COC(=O)c2cc3ccccc3oc2=O)c1,-3.4%,-2.9%,-4.0,2.8%
Cc1ccc(C(C)C)cc1S(=O)(=O)NCc1ccccn1,-2.4%,0.2%,nt,0.6%
CN1CC(=O)N/C1=N\C(=O)Nc1ccc2c(c1)N(C)C(=O)CS2,1.8%,-0.9%,3.6,8.0%
CSc1nc(=S)cc(C)[nH]1,-7.2%,-0.8%,3.6,0.3%
N#Cc1ccsc1NC(=O)C1CCCN1S(=O)(=O)c1cccs1 (stereo not given),nt,3.5%,nt,-7.9%
CCC(C)(C)NC(=O)c1ccc(Sc2nncn2C)c([N+](=O)[O-])c1,-6.7%,-2.0%,5.3,19.9%
O=C(COC(=O)c1cc(Br)ccc1O)NCC1CCCO1 (stereo not given),nt,0.8%,nt,-6.0%
O=C(NCc1cccnc1)/C(=C/c1ccc([N+](=O)[O-])cc1)NC(=O)c1ccccc1,nt,10.9%,nt,2.4%
COc1ccc(CNC(=O)NS(=O)(=O)c2ccc(C)cc2)cc1,nt,0.2%,nt,-5.8%
Cc1cccc2c1NC(=O)C21N2CCCC2C(C(=O)c2ccc3ccccc3c2)C12C(=O)Nc1ccccc12 (stereo not given),-12.0%,-7.1%,-8.8,-11.7%
COC(=O)c1cc(NC2c3ccccc3C(=O)N2c2ccc(Cl)cn2)cc(C(=O)OC)c1 (stereo not given),-18.1%,2.5%,4.2,3.9%
C=CCn1c(C)c(C(C)=O)c(N2CCCC2)nc1=S,-3.5%,-1.7%,-2.8,6.6%
Cc1ccc(NC(=O)CN2C(=O)NC(C)(c3ccccc3)C2=O)c(C)c1 (stereo not given),-0.2%,-1.2%,nt,-17.1%
Cc1ccc(C(=O)NCCN(C)C)c(C)c1,0.0%,-1.3%,-2.1,2.5%
COC(=O)c1[nH]c(C)c(/C(O)=C2\C(=O)C(=O)N(CCN(C)C)C2c2ccc(C)o2)c1C (stereo not given),1.1%,?,5.3,-19.3%
CCOc1ccc(C)cc1S(=O)(=O)Nc1cccnc1,nt,-0.7%,nt,13.7%
Cc1nc2ccccc2c(=O)n1/N=C/C=C/c1ccccc1,-9.1%,0.7%,-3.6,0.1%
CCCCn1c(N)c(N(CCOC)C(=O)CN(C)S(=O)(=O)c2ccc(Cl)cc2)c(=O)[nH]c1=O,-7.2%,-2.7%,nt,0.8%
CS(=O)(=O)NCCSCc1ccc(Cl)cc1,-6.7%,3.3%,4.1,7.5%
